Screening data as filed in PubChem.
GCN5L2 inh – inhibitors of human GCN5L2 histone acetyltransferase. 0.21% of 390,000 active. Potency, µM (highest dose often 58.9 µM), without a hit: at the highest dose activity change, negative = inhibition, usual class: inhibitors. GCN5L2 HAT assay, ThioGlo1 CoA-SH fluorescence; active = well fitted inhibition curve with a large enough effect; inconclusive = small, poorly fitted or top-dose-only effect, or another doubt; inactive = no such curve, though single readings can be large or run the other way
Target sequence (Q92830 whole entry, looked up): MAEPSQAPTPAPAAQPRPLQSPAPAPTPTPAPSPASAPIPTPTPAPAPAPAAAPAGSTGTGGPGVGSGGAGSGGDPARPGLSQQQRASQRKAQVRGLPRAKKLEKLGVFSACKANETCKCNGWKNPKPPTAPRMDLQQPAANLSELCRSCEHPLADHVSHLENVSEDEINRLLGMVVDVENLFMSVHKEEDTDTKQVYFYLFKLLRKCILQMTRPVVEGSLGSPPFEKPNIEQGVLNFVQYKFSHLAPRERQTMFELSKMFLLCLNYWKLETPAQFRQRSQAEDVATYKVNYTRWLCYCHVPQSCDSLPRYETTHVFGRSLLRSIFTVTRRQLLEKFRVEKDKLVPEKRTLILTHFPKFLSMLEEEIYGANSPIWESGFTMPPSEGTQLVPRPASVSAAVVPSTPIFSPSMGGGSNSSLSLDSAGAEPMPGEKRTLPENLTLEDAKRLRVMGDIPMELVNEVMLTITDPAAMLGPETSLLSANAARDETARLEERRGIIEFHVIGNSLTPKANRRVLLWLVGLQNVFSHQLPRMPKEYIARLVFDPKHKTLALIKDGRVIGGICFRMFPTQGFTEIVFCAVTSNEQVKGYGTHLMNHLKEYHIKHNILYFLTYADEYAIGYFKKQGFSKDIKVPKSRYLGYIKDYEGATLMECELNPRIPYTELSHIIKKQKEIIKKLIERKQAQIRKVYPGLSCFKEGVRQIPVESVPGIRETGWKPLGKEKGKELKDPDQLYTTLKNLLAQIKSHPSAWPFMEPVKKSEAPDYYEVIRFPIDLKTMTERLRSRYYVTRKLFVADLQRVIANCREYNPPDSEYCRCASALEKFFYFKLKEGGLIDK
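GCN5L2 (20 nM) in 50mM HEPES pH 7.5, 0.1mM EDTA, 0.01% Tween-20 preincubated 15 min with compounds at room temperature. Reaction started with H3(1-25) 75uM, acetyl-CoA 70uM, ThioGlo1 50uM; CoA-thiol fluorescence (Ex340/Em540) read at 0 and 20 min.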
* = called active by the depositor; ? = inconclusive; & = joins results of further samples. % is scaled to controls: 0 for no effect and ±100 for the full control effect; potency is read from the fitted curve at half-maximal effect. Only part of the results is shown; most or all hits stand in other tables.

No.	structure	GCN5L2 inh
1	Cn1c(=O)c2ncn(CC(=O)N/N=C/c3ccco3)c2n(C)c1=O	18.0%
2	Cc1ccc(Sc2ccc(N3CCCC(C(=O)Nc4ccc(F)c(Cl)c4)C3)nn2)cc1 (configuration not stated)	-6.0%
3	Cc1cccn2cc(CNc3ccccc3)nc12	-8.4%
4	CCOC(=O)c1ccc(NC(=O)c2csc3c2CCCC3)cc1	-14.6%
5	CCOC(=O)c1c(C)[nH]c(C(=O)CN2CCN(CC)CC2)c1C	-21.7%
6	COc1ccc(-n2cccc2C=O)cc1OC	-27.9%
7	COc1ccc(N2CCN(c3nc4ccc(C)cn4c(=O)c3C=O)CC2)cc1	-1.2%
8	CCCCn1c(N(CCOC(C)=O)C(C)=O)nc2ccccc21	0.5%
9	N#Cc1c2ccc(OCC(N)=O)cc2n2ccccc12	-21.3%
10	CCN(CC)c1ccc(NC(=O)c2ccc(Br)o2)cc1	0.2%
11	CC(C)(C)c1ccc(C(=O)NCCc2csc(-c3ccc(Cl)cc3)n2)cc1	-7.2%
12	O=C(NCc1ccccc1Br)C1CCCO1 (configuration not stated)	-3.3%
13	C/C(=N\N=C\c1ccc(N(C)C)cc1)c1cccc([N+](=O)[O-])c1	2.0%
14	O=C(NCc1ccccc1)N(Cc1cc2cc3c(cc2[nH]c1=O)OCCO3)CC1CCCO1 (configuration not stated)	-4.4%
15	Brc1ccc2nc(-c3cccs3)c(NCC3CCCO3)n2c1 (configuration not stated)	-6.1%
16	O=C(O)C1CCCCC1C(=O)NCc1cn2ccccc2n1 (configuration not stated)	-0.9%
17	CCOc1ccc(Cc2c(Cl)nc(N)nc2Cl)cc1	8.9%
18	COC(=O)C1=C(C)N(CCc2ccc(OC)c(OC)c2)C(=O)/C1=C\c1ccc(O)cc1	0.9%
19	CC(=O)Nc1ccc(S(=O)(=O)NCC(=O)OCC(=O)NCc2ccco2)cc1	0.6%
20	COc1ccccc1CN(C)C(=O)c1ccc(S(=O)(=O)Nc2c(C)n(C)n(-c3ccccc3)c2=O)cc1	-4.9%
21	NC(=O)CN1C(=O)NC2(CCOc3ccccc32)C1=O (configuration not stated)	-2.0%
22	COc1ccc(NC(=O)CN2C(=O)COc3ccc(S(=O)(=O)N4CCOCC4)cc32)cc1	0.8%&0.7%
23	O=C(NC1CCCCC1)N1CCc2[nH]c3ccccc3c2C1	-1.8%
24	O=C(Nc1ccc2c(c1)CCC2)Nc1ccc(F)cc1F	-5.7%
25	COc1ccc(N2CCN(CCCNC(=O)Cn3c(=O)c4cccn4c4ccccc43)CC2)cc1	-2.0%

The list goes on.
No.	structure	GCN5L2 inh
26	CCn1c(=O)c(NC(=O)c2ccccc2)c2n(c1=S)CCCCC2	0.4%
27	CN([C@@H](Cc1ccc(OS(=O)(=O)c2cccc3cnccc23)cc1)C(=O)N1CCN(c2ccccc2)CC1)S(=O)(=O)c1cccc2cnccc12	?
28	N#Cc1c(-c2ccc(Br)cc2)nc2n(c1=O)CCCS2	-11.1%
29	O=C(Nc1ccccc1C(=O)O)/C(=C/c1ccc(Cl)cc1Cl)NC(=O)c1ccco1	-16.6%
30	Cc1ccc(C)c(NCc2ccccc2CO)c1	-4.3%
31	Nc1c(N(Cc2ccco2)C(=O)c2cccc(F)c2)c(=O)[nH]c(=O)n1Cc1ccccc1	-3.2%
32	CCO[C@H]1OC(C(=O)NC2CC2)=C[C@@H](c2ccc(Br)cc2)[C@@H]1CCCO	6.7%
33	CCOc1ccc(-n2cc(-c3ccccc3)c3c(N4CCOCC4)ncnc32)cc1	-13.8%
34	CCOC(=O)Nc1cc(C)c(Cl)cc1OC	-6.7%
35	CC1=CCC2C(=O)N(c3ccccc3OC(=O)c3ccccc3F)C(=O)C2C1 (configuration not stated)	2.6%
36	CN(C)Cc1c(O)ccc2oc(Cc3ccccc3)cc12	-2.5%
37	Cc1cc(/C=N\NC(=O)CC(=O)NC2CCCCC2)c(C)n1-c1cccc(Cl)c1Cl	0.3%
38	Cc1ccnc(NC(=O)CNC(=O)c2ccccc2Br)c1	?
39	O=C(CN1C(=O)c2ccccc2C1=O)OC(C(=O)c1ccc(Cl)cc1)c1ccccc1 (configuration not stated)	-8.5%
40	COc1cccc(OC2OC3COC(C)(C)OC3C(O)C2NC(C)=O)c1 (configuration not stated)	-0.2%
41	Cn1c(=O)n(C)c2cc(NC(=O)COc3ccc(Cl)cc3)ccc21	-0.2%
42	Cc1ccccc1C(=O)NNC(=S)NC(=O)c1ccccc1	1.6%
43	CCNC(=O)CC1C(=O)N(CC)C(=S)N1NC(=O)c1ccccc1 (configuration not stated)	18.9%
44	c1ccc(Oc2nc(-c3cccnc3)nc3ccccc23)cc1	0.2%
45	O=C(CCN1C(=O)C2C3C=CC(C4CC34)C2C1=O)Oc1ccccc1 (configuration not stated)	-4.6%
46	CCOC(=O)C1=C(COC(=O)C(C)(C)Oc2ccc(Cl)cc2)NC(=O)NC1C (configuration not stated)	2.1%
47	COc1cc(CNCCC2CCOC(C)(C)C2)ccc1O (configuration not stated)	-0.4%
48	Fc1cc(F)c(C2SCCN2C(=S)Nc2cccc(C(F)(F)F)c2)c(F)c1 (configuration not stated)	-1.9%
49	CCOC(=O)c1c(NC(=O)c2cccs2)sc2c1CCN(C(=O)OCC)C2	0.3%
50	COc1ccc(OC)c(CNC(=O)c2c3c(nc4ccccc24)C(=O)N(C2CCCCC2)C3)c1	22.1%

Further compounds.
No.	structure	GCN5L2 inh
51	NC(=O)c1ccc(Oc2ccc(Cl)c3ccccc23)c([N+](=O)[O-])c1	1.0%
52	Clc1ccc2oc(-c3cccnc3NCc3ccccc3)nc2c1	-3.6%
53	CCN(CC)CCNc1nc(-c2ccc(OC)cc2)c(-c2ccc(OC)cc2)s1	-2.2%
54	O=S(=O)(/N=C(/Nc1ccccn1)c1ccccc1)c1ccc(F)cc1	-0.4%
55	CCn1nc([N+](=O)[O-])c2c(-c3nc4ccccc4o3)c(N)n(CCCOC)c2c1=O	-8.2%
56	CCOC(=O)c1c(CN(CC)CC)oc2cc(Br)c(O)cc12	-4.6%
57	O=C(O)c1ccccc1C(c1ccc(O)cc1)c1ccc(O)cc1	1.1%
58	CC(=O)c1ccc(NC(=O)C(C)NCc2ccccc2Cl)cc1 (configuration not stated)	-5.4%
59	CCCCCc1c(C)nc(SCC(=O)O)[nH]c1=O	0.4%
60	O=C(CCn1cnc2onc(-c3ccc(F)cc3)c2c1=O)N1CCN(c2ccccc2)CC1	4.1%
61	CCNC(=O)/C(C#N)=C/c1c(N2CCN(Cc3ccc4c(c3)OCO4)CC2)nc2c(C)cccn2c1=O	-4.8%
62	CCO[C@@H]1OC(C(N)=O)=C[C@H](c2ccc(Br)cc2)[C@H]1CCCO	0.4%
63	COc1cccc(NC(=O)Cn2nc3c4ccccc4n(Cc4cccc(F)c4)cc-3c2=O)c1	-15.5%
64	CC(C)c1ccccc1OCC(=O)NCC(c1cccs1)N1CCOCC1 (configuration not stated)	-10.4%
65	COCCNC(=O)Cn1c(-c2cccs2)cc2cc(Cl)ccc21	-7.0%
66	O=C(Nc1nnc(-c2cccs2)o1)c1ccco1	-16.3%
67	O=C(CCc1nnc2ccc(NCc3ccccc3Cl)nn12)NC1CCCC1	-1.4%
68	COc1cc(C(=O)NCC(c2cccs2)S(=O)(=O)c2ccc(F)cc2)cc(OC)c1OC (configuration not stated)	-8.3%
69	Cc1ccnc(N/N=C/c2ccco2)n1	-3.9%
70	Cc1ccc(C)c(NS(=O)(=O)c2cc(C(=O)Nc3ccccc3-c3ccccc3)ccc2Cl)c1	-14.4%
71	CCC(C)Sc1nnc(CSc2nc3nc(C)cc(C)n3n2)o1 (configuration not stated)	-2.4%
72	Cc1ccccc1OC1C(=O)N(Cc2ccc3c(c2)OCO3)C1c1sccc1C (configuration not stated)	-3.9%
73	Cc1ccc(CC(=O)Nc2cccnc2)cc1	-9.2%
74	CCOc1ccc(NC(=O)[C@@H]2CCCN2C(=O)c2cccs2)cc1S(=O)(=O)N1CCOCC1	-0.2%
75	Cc1ccc(S(=O)(=O)NCCCNc2ccc([N+](=O)[O-])cc2)cc1	-1.4%

Four compounds already listed, sorted by molecular weight, smallest number first:
No.	structure	GCN5L2 inh
51	NC(=O)c1ccc(Oc2ccc(Cl)c3ccccc23)c([N+](=O)[O-])c1	1.0%
54	O=S(=O)(/N=C(/Nc1ccccn1)c1ccccc1)c1ccc(F)cc1	-0.4%
62	CCO[C@@H]1OC(C(N)=O)=C[C@H](c2ccc(Br)cc2)[C@H]1CCCO	0.4%
68	COc1cc(C(=O)NCC(c2cccs2)S(=O)(=O)c2ccc(F)cc2)cc(OC)c1OC (configuration not stated)	-8.3%

Continuation:
No.	structure	GCN5L2 inh
76	Cc1nnc2ccc(-c3cccc(NS(=O)(=O)c4cc(F)ccc4F)c3)nn12	0.7%
77	OC[C@H]1O[C@@H]2O[C@H]3[C@H](O)[C@@H](O)[C@@H](O[C@H]4[C@H](O)[C@@H](O)[C@@H](O[C@H]5[C@H](O)[C@@H](O)[C@@H](O[C@H]6[C@H](O)[C@@H](O)[C@@H](O[C@H]7[C@H](O)[C@@H](O)[C@@H](O[C@H]1[C@H](O)[C@H]2O)O[C@@H]7CO)O[C@@H]6CO)O[C@@H]5CO)O[C@@H]4CO)O[C@@H]3CO	-0.2%&9.3%
78	CN(C)CCN1C(=O)C2C3C=CC(C3)C2C1=O (configuration not stated)	0.3%
79	Cc1ccc(NC(=O)CS(=O)CC(=O)Nc2ccc3c(c2)OCO3)cc1Cl (configuration not stated)	-4.1%
80	CCC(Cc1ccccc1)NC(=O)CN(C)S(=O)(=O)c1ccc2c(c1)c(=O)n(C)c(=O)n2C (configuration not stated)	-2.0%
81	Cc1nn(-c2ccccc2)c(Cl)c1C(=O)NCc1ccccc1F	-4.9%
82	CCNC(=S)Nc1cc(OCC)c(NC(=O)c2cccs2)cc1OCC	-5.7%
83	COc1ccc(NC(=O)c2ccco2)cc1NC(=O)COc1ccccc1	-14.4%&9.1%
84	COc1ccccc1CC(=O)Nc1ccc2c(c1)C(=O)NC2=O	24.6%
85	CC(=O)OC/C=C(\C)CCC=C(C)C	-2.7%
86	CCOC(=O)N1CCC(N2Cc3cccc(C(=O)NCc4ccccn4)c3C2=O)CC1	-6.4%
87	COc1ccccc1NS(=O)(=O)c1cccc(C(=O)NCC(C)(C)N2CCOCC2)c1	-2.6%
88	COCCNC(=O)CN(C(=O)CCC(=O)Nc1ccccn1)c1ccccc1F	-7.6%
89	CCN(C(=O)COC(=O)c1ccccc1Cc1ccccc1)C1CCS(=O)(=O)C1 (configuration not stated)	0.7%
90	Cn1c(SCC(=O)NCC2CCCO2)nnc1-c1cccc(NC(=O)c2ccccc2F)c1 (configuration not stated)	8.2%
91	Cc1cc(C)c(NC(=O)COC(=O)c2ccncc2)c(C)c1	-2.6%
92	CN1C(=O)NC(NC(=O)c2cccs2)(C(F)(F)F)C1=O (configuration not stated)	-4.0%
93	CCOC(=O)C1CCN(C(=O)c2cn(C)c(=O)c3cc(OC)c(OC)cc23)CC1	-2.7%
94	CC1=CC(=O)C=C(C)C1=NOc1ccc([N+](=O)[O-])cc1	-1.4%
95	COc1ccc(CCNC(=O)Cc2c(C)c3cc4c(C(C)(C)C)coc4c(C)c3oc2=O)cc1	-2.9%
96	CCOc1ccc(S(=O)(=O)N2CCOCC2)cc1NC(=O)CN1C(=O)NC2(CCCCC2)C1=O	0.0%
97	Cc1oc(C(C)(C)C)cc1C(=O)NC1CCN(Cc2ccccc2)CC1	-6.4%
98	O=C(NCC(c1ccco1)N1CCCC1)c1cccc(S(=O)(=O)Nc2ccc(Br)cc2)c1 (configuration not stated)	?
99	COc1ccccc1/C=C(/CC(=O)NCc1ccc(F)cc1)c1nc2ccccc2s1	-17.9%
100	C/C(=N\NC(=O)Cc1ccccc1)c1ccc(Cl)s1	-0.9%

Other records follow.
No.	structure	GCN5L2 inh
101	COc1ccc(S(=O)(=O)Nc2cccc(SC)c2)cc1OC	-1.9%
102	CCCC(=O)Nc1ccc(C(=O)COC(=O)c2c(C)noc2C)cc1	-4.0%
103	O=C(CSc1n[nH]c(=O)n1-c1ccccc1)Nc1ccccc1	2.4%
104	COc1cc(OC)cc(-n2nnnc2SCC(=O)NCCc2ccc(OC)c(OC)c2)c1	0.5%
105	COc1ccc(-c2ccnc(SCC(=O)c3ccc(OC)c(OC)c3)n2)cc1	-3.8%
106	CCC(=O)Nc1ccccc1C(=O)OC(c1ccccc1)c1ccccc1	-3.7%
107	Cc1ccc(S(=O)(=O)Nc2nc(CN3CCOCC3)nc3sc(C)c(C)c23)cc1	-0.6%
108	CCn1c(SCC(=O)c2ccc3ccccc3c2)nnc1-c1cccs1	?
109	O=C(COC(=O)CCOc1ccccc1)NCCC1=CCCCC1	-3.4%
110	Cn1c(=O)[nH]c(=O)c2c1nc1n2CCCS1	-1.5%
111	CCc1nnc(NS(=O)(=O)c2ccc(NC(=O)/C=C/C(=O)O)cc2)s1	-7.2%
112	Cc1ccc(Oc2nc3c(c(=O)n(Cc4ccccc4F)c(=O)n3C)n2C)cc1	0.7%
113	O=C1NCC(=O)N(Cc2ccccc2)/C1=C/c1ccccc1	-5.2%

4 entries out of the list above, arranged by their value in GCN5L2 inh, smallest number first.
entry | Compound | GCN5L2 inh
113 | O=C1NCC(=O)N(Cc2ccccc2)/C1=C/c1ccccc1 | -5.2%
101 | COc1ccc(S(=O)(=O)Nc2cccc(SC)c2)cc1OC | -1.9%
107 | Cc1ccc(S(=O)(=O)Nc2nc(CN3CCOCC3)nc3sc(C)c(C)c23)cc1 | -0.6%
112 | Cc1ccc(Oc2nc3c(c(=O)n(Cc4ccccc4F)c(=O)n3C)n2C)cc1 | 0.7%
